Yeast UUG start = alters start codon recognition fidelity in yeast | S. cerevisiae UUG-firefly luciferase reporter, luminescence/redox ratio | activity score, % at 18.7 µM | actives 0.13% (n = 350,000) | AID 602363;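 active means replicate mean at a twofold rise or more, about +100% in these data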;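 further: firefly luciferase made from a UUG start codon reports start codon fidelity; reporter light over untreated wells divided by growth signal over untreated wells; some hits fall short of that in this replicate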
eIF4H inh = inhibitors of RNA binding by human eIF4H. Q15056. eIF4H fluorescence polarization binding assay. inhibition, % at 35 µM. actives 0.94% (n = 290,000);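 active means 50% or more with normal probe brightness, or confirmed in later tests; about a fifth of its hits are not listed in these tables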;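 further: calls also rest on retests at 20 µM and on dose response follow-up; 0% = protein and probe with vehicle and 100% = probe without protein; strong numbers were not always called active; many hits fall short of the cut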
MT1-MMP act inh = blocks activation of human MT1-MMP; AID 651647; actives 0.061% (n = 360,000); HT1080 RFP-PRO-GFP cells, GFP/RFP ratio fluorescence, overnight; percent of plate control window, DMSO zero; P50281; GFP/RFP ratio change, % at 20 µM;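 active means GFP/RFP ratio change of at least 30% with cell ATP level not reduced by more than half and red fluorescence within 50% of control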; further: strong numbers were not always called active
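Assay system: HT1080 RFP-PRO-GFP cells. Benchmarks: DMSO vehicle wells and RFP-L50D-GFP reporter cell wells. Times: overnight cell settling, then overnight compound exposure, 37 °C, 5% CO2. Compound: 20 µM single dose, 1% DMSO. Read-out basis: GFP/RFP fluorescence ratio.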
PABP FP inh = PABP-poly(A) binding inhibition. inhibition, % at 35 µM. actives 1% (n = 290,000). PABP-poly(A) RNA binding, fluorescence polarization. AID 2014;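 active means 50% or more with normal probe brightness, or confirmed in later tests; about a fifth of its hits are not listed in these tables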;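 further: calls also rest on retests at 20 µM and on dose response follow-up; controls were probe without protein and protein plus probe with vehicle; some compounds called inactive have numbers as strong as hits; many hits fall short of the cut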
Env fusion inh = HIV envelope-mediated fusion inhibition; HeLa-JRFL Env/CEM21 cell fusion, luciferase; inhibition, % at 12.3 µM; actives 1.1% (n = 360,000); AID 651610;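 active means mean replicate inhibition score of at least 50 and every replicate individually at or above 50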;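 further: 0% = plate neutral controls and 100% = maraviroc near 300 nM; one replicate is shown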
Rce1 inh = yeast Ras-converting enzyme inhibition; Q03530; yeast membranes, quenched prenylated peptide cleavage fluorescence; calls only; actives 0.27% (n = 290,000); AID 2563;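 active means fall in fluorescence gain of 50% or more versus controls, with final raw signal at or below 3038400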;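 further: plate controls were neutral control wells for no effect and wells lacking membranes for full effect; tested at 10 µM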
Target sequence (Q03530 whole entry, looked up): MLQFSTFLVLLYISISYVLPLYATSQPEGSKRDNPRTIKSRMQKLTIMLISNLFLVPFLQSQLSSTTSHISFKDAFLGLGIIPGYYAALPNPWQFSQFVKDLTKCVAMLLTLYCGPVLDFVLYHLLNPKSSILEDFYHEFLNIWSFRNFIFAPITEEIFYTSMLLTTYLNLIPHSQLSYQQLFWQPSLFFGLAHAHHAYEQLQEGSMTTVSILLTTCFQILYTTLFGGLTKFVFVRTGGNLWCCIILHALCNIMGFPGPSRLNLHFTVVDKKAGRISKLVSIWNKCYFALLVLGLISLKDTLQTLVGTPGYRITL
CSC inhib = blocks cancer stem cells | cancer stem cell-like cells viability, luminescence | inhibition, % at 7.5 µM | actives 1.1% (n = 300,000);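 active means mean at 75% or more and at least half the replicates too; tested in HMLE shEcad cells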;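 further: 0% = median of negative and 100% = median of positive control wells; the first replicate is given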
eIF4H inh retest = also measured in eIF4H inh; calls as there; inhibition, %; compound at 20 µM; confirmation average;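 mean of two retest wells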
PABP FP inh retest = further read-out of PABP FP inh, marked with its call; inhibition, %; compound at 20 µM; confirmation repeats;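 mean of two retest wells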
MT1-MMP act inh RFP = further read-out of MT1-MMP act inh, marked with its call; RFP signal change, %; measured here: RFP expression control read;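 0 = vehicle wells; hits needed this value within 50% of zero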
* = called active by the depositor; i = inactive; / = no result given; & = joins results of further samples; [ ] = another dose, or the depositor's remark.

SMILES	Yeast UUG start	eIF4H inh	MT1-MMP act inh	MT1-MMP act inh RFP	PABP FP inh	Env fusion inh	Rce1 inh	CSC inhib	others
COc1ccc(-c2c(C)oc3c(CN4CCCCC4C)c(O)ccc3c2=O)cc1OC (configuration not stated)	-16	17	-2	-1	-19	7	i	-2
CCOC(=O)c1oc2nc(C)c3c(c2c1N)CC(C)(C)OC3	11	9	2	0	1	-48	i	2
Cc1ccc(NC(=O)Cn2nc(C)c3ccccc3c2=O)cc1F	/	0	2	4	-7	-57	i	-8
CCN(CCCNC(=O)COc1cc(=O)n(CC)c2ccccc12)c1ccccc1	14	3	10	0	-12	-21	i	-11
CCC(CO)Oc1cc(NC(=O)c2cccc(F)c2)c2ncn(C(C)C)c2c1 (configuration not stated)	-17&-17	/	0	3	/	-8	/	-13
CC(C)(C)NC(=O)CN1CCC(O)(c2ccccc2)CC1	4	-1	-1	0	7	/	i	3
CCc1nnc(NC(=O)CSc2nnc(C)n2-c2ccc(C)cc2)s1	/	-3	4	-1	-5	/	i	-15
COc1ccc(N(CC(=O)Nc2cccc(C)c2C)S(=O)(=O)c2c(C)n[nH]c2C)cc1	-14	-3	-2	0	-1	-10	i	2
NC(=O)NCCCC(=O)O	5	/	-1	2	/	/	/	-7
CC(C)Oc1ccc(F)cc1-c1cc(C(=O)NCc2cc(C(F)(F)F)cc(C(F)(F)F)c2)[nH]n1	-4	/	1	-1	/	44	/	/
CCCn1c(=O)n(C)c(=O)c2c(SCc3cc(C(C)=O)ccc3OCC)nc(C3CC3)nc21	/	/	/	/	/	-39	i	-6
COc1ccc(OC)c(S(=O)(=O)N2CCC(C(=O)N3CCOCC3)CC2)c1	-11	-1	0	2	3	4	/	-12
O=C(COc1ccc(Cl)cc1)N1CCN(S(=O)(=O)c2ccccc2)CC1	-15	7	-1	3	-3	13	i	-8
CCOC(=O)c1cnn(-c2cc(C)cc(C)c2)c1N	-11	2	1	-2	-4	-4	i	17
CNc1cnn(-c2ccc(C)cc2)c(=O)c1Cl	-14	-2	-2	4	5	/	i	/
CC(CNC(=O)C(=O)NC(C)CCc1ccccc1)Cc1ccccc1 (configuration not stated)	-13	12	-3	-3	-1	/	i	11
Cc1ccc(CN2CCN(Cc3ccc4cc(F)ccc4n3)CC2CCO)o1 (configuration not stated)	-22	32	-2	6	29	-19	i	-11
Cc1cccc(N(CC(=O)NC(C)(C)C)C(=O)CCC(=O)Nc2ccccn2)c1	9	50	-4	-2	13	9	i	-10	eIF4H inh retest=0;PABP FP inh retest=19
COc1ccc(C(=O)C2CCCN(Cc3cccn3-c3ccccn3)C2)c(C)c1 (configuration not stated)	/	5	-6	-10	2	2	i	1
Cc1[nH]nc(-c2ccc(OCc3cnn(-c4ccccc4)c3)c(C)c2O)c1Oc1ccccc1	-18	2	-1	2	-10	/	i	9
CC(C)c1ccc(N=C2N=C(N)c3ccccc32)cc1	/	-13	-13	0	-7	-38	i	21
COc1ccc(OC)c(NC(=S)N2CCN(c3ccccn3)CC2)c1	-25	-1	7	7	8	-5	i	-6
Cc1cc(NC(=O)CCSc2nc(-c3ccco3)cc(C(F)(F)F)n2)n(-c2ccccc2)n1	-4	3	8	0	-2	/	/	/
COc1ccc(C(=O)Nc2cc(OC)cc3cccnc23)cc1	1	-1	1	6	2	2	i	13
O=C1c2ccccc2NC(c2cccc(F)c2)N1Cc1ccccc1 (configuration not stated)	-1	-15	-10	-6	-8	-4	i	3
COc1ccccc1S(=O)(=O)n1cc(Cc2ccccc2)c(N)n1	-4	-5	2	5	-13	79*	i	4
COc1ccc(CNC(=O)/C=C/C(=O)O)cc1	7	3	2	6	-1	11	i	-8
Cc1ccccc1-c1cc2nc(NCCCN(C)C)n(C)c(=O)c2s1	-27	/	1	3	/	9	/	/
Cc1cccc(NS(=O)(=O)c2cc(C(=O)N3CCOCC3)ccc2Cl)c1	/	-1	-2	-2	8	21	i	2
CCC(CO)Oc1cc(NC(=O)c2ccc(C)cc2)c2ncn(C(C)C)c2c1 (configuration not stated)	-6&-4	/	-4	-1	/	-18	/	-5
O=C(CCn1c(=S)[nH]c2cc3c(cc2c1=O)OCO3)NCCc1ccccc1Cl	2	/	1	4	/	-20	/	/
Cc1nc2ccc([N+](=O)[O-])cc2c(=O)n1Cc1ccc([N+](=O)[O-])cc1	0	-7	6	0	-3	1	i	-9
CCCCN(C(=O)CSc1nnnn1-c1ccccc1OC)C1CCS(=O)(=O)C1 (configuration not stated)	/	/	4	2	/	6	i	8
COc1ccccc1NCC(=O)N1CCN(S(=O)(=O)c2ccccc2)CC1	-9	/	-2	2	/	-8	/	/
CN(C)C(=O)C(CCN1CCC(O)(c2ccc(Cl)cc2)CC1)(c1ccccc1)c1ccccc1	-6	-3	-1	-5	5	i	i	10
COc1ccc2nc(/N=C/c3c(C)[nH]n(-c4ccc(C)cc4C)c3=O)sc2c1	-20	-5	3	5	-6	-7	i	-11
CCOC(=O)c1ccc(CNC(=O)CSc2nnnn2-c2ccc(Cl)cc2)o1	5	-2	7	7	-5	/	i	3
COC(=O)c1ccc(OC)cc1OCC(=O)N1CCN(c2ccc(F)cc2)CC1	-9	1	4	2	-12	-57	i	-1
O=C(Nc1ccc2c(c1)OCO2)c1cccs1	-23	2	-1	2	8	-60	i	12
Cc1ccc(SC(C)C(=O)N2CCC(C(N)=O)CC2)cc1 (configuration not stated)	/	-6	1	3	-3	-11	i	-4

Of the compounds above, two have two or more sulfur atoms:
SMILES	Yeast UUG start	eIF4H inh	MT1-MMP act inh	MT1-MMP act inh RFP	PABP FP inh	Env fusion inh	Rce1 inh	CSC inhib	others
CCc1nnc(NC(=O)CSc2nnc(C)n2-c2ccc(C)cc2)s1	/	-3	4	-1	-5	/	i	-15
CCCCN(C(=O)CSc1nnnn1-c1ccccc1OC)C1CCS(=O)(=O)C1 (configuration not stated)	/	/	4	2	/	6	i	8

Additional entries follow.
SMILES	Yeast UUG start	eIF4H inh	MT1-MMP act inh	MT1-MMP act inh RFP	PABP FP inh	Env fusion inh	Rce1 inh	CSC inhib	others
CCOC(=O)N1CCC(NC(=O)c2ccc3c(c2)N(C)CCS3)CC1	8	10	0	-4	2	0	/	-3
CCCC(=O)Nc1ccc(C(=O)NNC(=S)NC(=O)c2ccc(Br)o2)cc1	/	13	0	-1	-10	17	i	17
Oc1oc(-c2ccccc2)nc1/C=N/c1nccs1	/	3	2	1	10	8	i	-7
Cc1ccc(CN2CCNC(=O)C2CC(=O)NCCCn2cccn2)o1 (configuration not stated)	-14	-5	0	3	-1	7	i	-15
O=C(c1ccc(CS(=O)(=O)c2ccc(Br)cc2)o1)N1CCCCCC1	-12	2	-1	-2	-1	-5	i	-15
CCCCCCN1C=CC=C/C1=C\C=C(C#N)C#N	18	-12	-136	-3	-14	16	/	-3
O=C(Nc1ccc(F)cc1)c1ccc(NC(=O)C2CCCO2)cc1 (configuration not stated)	-2	0	-2	-4	-1	/	i	-4
CCN1CCN(c2ccc(NC(=O)c3ccc4c(c3)[nH]c(=O)n4Cc3ccc(F)cc3)cc2)CC1	/	-2	7	2	-7	-13	i	67
N#CCCn1cc(C(=O)CN2C(=O)C(=O)N(C3CCCC3)C2=O)c2ccccc21	2	/	0	1	/	-131	/	/
O=C(NCCO)c1cc2c(s1)CCC2	-9	-14	-8	-8	1	/	i	-1
Cc1cccc2cc(CN(Cc3ccccc3)C(=S)NCCCN(C)C)c(=O)[nH]c12	/	-7	1	-3	-10	-7	i	2
COc1ccccc1C(=O)Nc1ccccc1C(=O)NC1CCCCC1	-7	-10	0	0	-13	/	i	18
c1ccc(C(=C2CCCO2)c2ccccc2)cc1	-16	/	2	3	/	-5	/	/
COc1ccc(C)cc1S(=O)(=O)N1CCCCCC1	/	2	3	0	-4	6	i	4
COc1cc(C(=O)Nc2ccc(Br)cc2C(=O)c2cc(OC)c(OC)c(OC)c2)cc(OC)c1OC	-5	6	-3	-10	3	-39	i	20
Clc1ccc(CNc2ncccn2)cc1	-15	-5	2	5	-7	7	i	8
NS(=O)(=O)c1ccc(CCNC(=O)COC(=O)c2ccc([N+](=O)[O-])o2)cc1	11	/	0	4	/	-3	/	-10
C[C@H](CO)N1C[C@H](C)[C@H](CN(C)S(=O)(=O)c2ccccc2)Oc2c(NS(C)(=O)=O)cccc2C1=O	9&-1	/	6	1	/	9[16.7 µM]	/	-9
O=[N+]([O-])c1ccc(N/N=C/c2ccccc2)cc1	-16	-3	-11	-1	-12	-48	i	17
COc1ccc2c(c1)CCO[C@]21O[C@H](CCO)C[C@H](O)[C@H]1O	-4	/	1	2	/	13	/	/
O=C(/C(=C/O)N=Nc1ccccc1Cl)c1ccccc1	/	-5	-5	-4	-4	-7	i	3
CCCCN1CC(N2CCCCC2)CS1(=O)=O (configuration not stated)	0	/	1	5	/	30	/	/
CCCc1cc(=O)n2[nH]c(NCc3ccc(OC)cc3)nc2n1	/	-1	1	2	-3	6	/	-10
COc1ccc(C(=O)NC2CC(C)(C)Cc3c2cnn3-c2ccccc2C)o1 (configuration not stated)	6	-12	-7	4	-8	10	i	-6
Cn1c(N)c(C(=O)COC(=O)C2(c3ccccc3F)CCCC2)c(=O)n(C)c1=O	10	0	1	-3	2	/	i	-5
Cc1c(CCOC(=O)C23CC4(C)CC(C)(CC(C)(C4)C2)C3)sc[n+]1CC(=O)c1ccccc1	/	0	-11	-7	1	62*	i	/
N#Cc1cc2c(=O)n3ccccc3nc2n(-c2ccccc2Cl)c1=O	3	73	-10	-12	7	11	i	-8	eIF4H inh retest=-5;PABP FP inh retest=5
COCCn1c(C)cc(C(=O)COc2ccc(C)nc2[N+](=O)[O-])c1C	-21	115*	-5	-5	-25	15	i	12	eIF4H inh retest=83*;PABP FP inh retest=43
CN(/N=C/c1cccnc1)c1cnc2ccccc2n1	/	-2	-2	-3	-5	-62	i	3
O=C(Nc1ncc(Cc2cccc(Cl)c2Cl)s1)c1ccc([N+](=O)[O-])cc1	3	-5	-1	-16	-6	-42	i	59
CC(C)C(C(=O)NC1CCCC1)N(CC1CCCO1)C(=O)CNS(=O)(=O)c1ccccc1 (configuration not stated)	-14	5	-3	-1	7	2	i	-2
O=C(c1ccc(Cl)cc1)N1N=CCC1(O)c1ccc(Cl)cc1 (configuration not stated)	-2	0	2	1	-7	0	i	-9
CCSc1nnc2nc3[nH]c4c(C)cccc4c3nn12	-19	-4	2	1	-12	-14	i	4
CN(C(=O)CSc1nc2scc(-c3ccccc3)c2c(=O)[nH]1)c1ccccc1	-13	/	4	-8	/	/	/	-10
COc1ccc(C(=O)Nc2cccnc2Sc2ccc(Cl)cc2)cc1	-9	3	0	-4	17	-8	i	7
COCCN1C(=O)CCC1(C)C(=O)NC1CCCCC1 (configuration not stated)	10	/	4	3	/	-11	/	/
Cc1ccccc1C(=O)Nc1nnc(CC(=O)N/N=C/c2ccco2)s1	/	4	-1	1	-6	3	i	-4
CCCCOc1ccc(-c2c(C#N)c(N)nc(SCC(N)=O)c2C#N)cc1	-2	0	7	-5	7	/	i	34
COc1ccc(N(Cc2cc3cc(C)ccc3[nH]c2=O)C(C)=O)cc1	-9	-7	-2	-2	4	2	i	-18
Cc1ccc(C(C(=O)NC2CCCC2)N(Cc2ccc(F)cc2)C(=O)c2csnn2)o1 (configuration not stated)	/	-5	-5	1	-10	42	i	-3
CCCCN(CCCNC(=S)NCCCc1cnc[nH]1)c1ccc(Br)cn1	-16	/	3	-6	/	-13	/	/
CN(C)/C=C(\c1cnc(Cl)s1)S(=O)(=O)c1ccccc1	/	-4	-2	1	6	-4	i	0
O=C(Cc1ccccc1Cl)N1CCN(c2ccccn2)CC1	-6	-1	9	4	-10	-20	i	-14

Screening data (PubChem BioAssay)
